G9a inh: qHTS Assay for Inhibitors of Histone Lysine Methyltransferase G9a | Histone-lysine N-methyltransferase EHMT2 (Homo sapiens), Q96KQ7 | G9a H3K9 monomethylation, AlphaScreen, 2 h | Potency, µM (series often up to 102 µM), for the others: top-dose activity, negative = inhibition, actives largely listed as inhibitors | actives 8.8% (n = 350,000) | AID 504332, 2011; further: on the % scale 0 is the no-effect control and ±100 the full control effect; nearly all actives have a fitted effect of over 75% in size
Target sequence (Q96KQ7 913-1193 limits assumed): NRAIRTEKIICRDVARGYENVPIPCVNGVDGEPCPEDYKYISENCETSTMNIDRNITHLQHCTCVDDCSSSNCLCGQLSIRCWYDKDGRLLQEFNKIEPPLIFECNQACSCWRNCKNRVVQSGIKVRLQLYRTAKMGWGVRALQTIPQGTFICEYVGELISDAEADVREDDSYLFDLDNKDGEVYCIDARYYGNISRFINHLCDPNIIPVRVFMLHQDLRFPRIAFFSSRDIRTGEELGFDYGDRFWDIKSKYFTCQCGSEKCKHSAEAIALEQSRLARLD
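AlphaScreen read-out: biotin-H3K9 peptide (500 nM) methylation by 20 nM enzyme with 20 uM SAM, 2 h at room temperature after 15 min compound preincubation; anti-monomethyl H3K9 antibody plus donor/acceptor beads, 10 min dark.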
Anesthetic bind: qHTS Assay for Identification of Novel General Anesthetics. Ferritin light chain (Equus caballus), P02791. apoferritin/1-aminoanthracene competitive binding, fluorescence. Potency, µM (series often up to 77.5 µM), inactives show top-dose activity change, negative = displacement, hits mostly inhibitors. actives 0.074% (n = 350,000); further: on the % scale 0 is the no-effect control and ±100 the full control effect; nearly all actives have a fitted effect of over 20% in size
Target sequence (P02791 2-175 limits assumed): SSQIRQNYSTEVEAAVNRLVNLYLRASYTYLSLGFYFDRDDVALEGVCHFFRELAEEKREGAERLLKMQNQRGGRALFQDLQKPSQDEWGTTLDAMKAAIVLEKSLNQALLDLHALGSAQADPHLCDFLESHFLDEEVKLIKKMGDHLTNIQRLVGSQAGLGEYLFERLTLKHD
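Steps: apoferritin (10 uM) was premixed with half-saturated 1-AMA in PBS, compounds were pin-transferred, plates stood 10 min at room temperature, fluorescence was read at 380/535 nm, and curves were fitted with a Hill equation.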
POLB inh: qHTS Assay for Inhibitors of DNA Polymerase Beta; Potency, µM (doses to about 114 µM), inactives show at the top dose activity change, negative = inhibition, usual class: inhibitors; Pol beta primer extension/strand displacement, fluorescence kinetic; actives 1.3% (n = 340,000); further: on the % scale 0 is the no-effect control and ±100 the full control effect
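Preincubation: enzyme (10 nM) with compound, 15 min, RT. Reaction: substrate added to 50 nM final. Reads: 0 and 10 min. Analysis: normalized, Hill fit.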
Pol eta inh: qHTS for Inhibitors of Polymerase Eta. DNA polymerase eta (Homo sapiens), Q9Y253. recombinant Pol eta, fluorescent DNA replication assay. actives 1.2% (n = 390,000). AID 588591, 2011. Potency, µM (highest dose often 114 µM), inactives show at the highest dose activity change, negative = inhibition, most hits filed as inhibitors; further: on the % scale 0 is the no-effect control and ±100 the full control effect
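Pol eta (10 nM) was preincubated with compounds for 15 min at room temperature, after which fluorescent replication substrate (50 nM final) was added to start the reaction. Fluorescence was read kinetically at 0 and 10 min.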
BLM inh: qHTS Assay for Inhibitors of Bloom's syndrome helicase (BLM). RecQ-like DNA helicase BLM (Homo sapiens), P54132. recombinant BLM DNA unwinding, fluorescence dequenching. Potency, µM (series often up to 56.1 µM), without a hit: at the top dose activity change, negative = inhibition, hits mostly inhibitors. actives 0.2% (n = 350,000). AID 2528, 2010;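 further: plate controls were vehicle for no effect and no enzyme for full effect; nearly all actives have a fitted effect of over 35% in size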
APE1 inh: qHTS Assay for Inhibitors of the Human Apurinic/apyrimidinic Endonuclease 1 (APE1) | recombinant APE1, TAMRA/BHQ-2 abasic DNA cleavage fluorescence | actives 0.35% (n = 350,000) | Potency, µM (top dose mostly 65.8 µM), without a hit: top-dose activity change, negative = inhibition, actives largely listed as inhibitors;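 further: plate controls were vehicle for no effect and reference inhibitor for full effect; nearly all actives have a fitted effect of over 55% in size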
Target sequence (P27695 whole entry, looked up): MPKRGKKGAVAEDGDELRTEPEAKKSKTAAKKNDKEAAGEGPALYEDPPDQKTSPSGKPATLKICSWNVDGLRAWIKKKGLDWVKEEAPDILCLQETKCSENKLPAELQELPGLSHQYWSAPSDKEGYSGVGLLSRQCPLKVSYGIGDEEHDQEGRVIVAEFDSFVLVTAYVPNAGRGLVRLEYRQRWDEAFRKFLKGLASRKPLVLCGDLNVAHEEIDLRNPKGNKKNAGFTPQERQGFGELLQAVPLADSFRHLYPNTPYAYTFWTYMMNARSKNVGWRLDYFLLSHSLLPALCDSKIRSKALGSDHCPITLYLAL
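Compound pre-exposure to 0.75 nM APE1, 15 min at ambient temperature. Reaction initiated with 50 nM TAMRA/BHQ-2 THF substrate, read immediately in kinetic mode, 525 nm excitation, 598 nm emission.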
Pol iota inh: qHTS for Inhibitors of Polymerase Iota; Pol iota fluorescent replication assay, 10 min; Potency, µM (highest dose often 115 µM), without a hit: at the highest dose activity, negative = inhibition, actives largely listed as inhibitors; actives 1% (n = 390,000)
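Fluorescent replication assay read twice, at 0 min and 10 min after adding 50 nM (final) substrate. Enzyme (10 nM) and compounds were first incubated 15 min at room temperature; enzyme-free buffer wells were negative controls.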
Pol kappa inh: qHTS for Inhibitors of Polymerase Kappa. purified Pol kappa, fluorescent DNA synthesis assay, 10 min. Potency, µM (doses to about 107 µM), without a hit: at the highest dose activity, negative = inhibition, actives largely listed as inhibitors. actives 0.53% (n = 400,000). AID 588579, 2011; further: on the % scale 0 is the no-effect control and ±100 the full control effect
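Activity was followed as the change in fluorescence between reads at 0 and 10 min after starting the reaction with 50 nM substrate. Beforehand, 10 nM polymerase had been preincubated with compound for 15 min at room temperature.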
Active calls of the source: *; ? = inconclusive; / = not tested or not shown; [ ] = dose if it differs, or a comment. The call rests on the fitted dose curve; in most records, active means well fitted curve in the direction sought with a large enough effect; inconclusive means small, poorly fitted or top-dose-only effect, or another doubt; inactive means no such curve, though single readings can be large; an effect the other way counts as inactive or inconclusive. Potency means the concentration at half of the fitted maximal effect.

entry	SMILES	Pol iota inh	G9a inh	POLB inh	Pol kappa inh
1	Cc1ccc(Oc2nc(CN3CCOCC3)nc3sc4c(c23)CCC(C)C4)cc1C (stereo unspecified)	24%	5%[59 µM]	-17%	-4%
2	CC1CN(C2CCN(C(=O)COc3ccc(Cl)cc3)CC2)CC(C)O1 (stereo unspecified)	24%	?	5%	-7%
3	CC(=O)c1cccc(Oc2ncccn2)c1	-4%	7%	9%	0%
4	COc1ccccc1CNc1cc(-c2ccccc2)ccc1OC	11%	?	-26%	-22%
5	Cc1ccc(-c2nc3ccccn3c2Nc2ccc3c(c2)OCCO3)s1	-20%	8.9µM*	-3%	-22%
6	Fc1cccc(CN2CCc3nc(Nc4ccc5c(c4)OCCO5)ncc3C2)c1F	-6%	-1%[12.7 µM]	-19%	-8%[60.1 µM]
7	Cc1c(NC(=O)CNCc2ccc3c(c2)OCO3)c(=O)n(-c2ccccc2)n1C	-22%	-26%[12.7 µM]	?	-7%
8	COc1ccc(CNCc2ccccc2[N+](=O)[O-])cc1OC	-22%	-13%[0.501 µM]	-5%	-8%

entry	BLM inh	Anesthetic bind	Pol eta inh	APE1 inh
1	-11%	2%	-25%	6%
2	3%	-9%	0%	2%
3	-1%	4%	-7%	-5%
4	-8%	40%[activator]	-5%	-6%
5	-12%	35%[activator]	-10%	/
6	-9%	-3%	-14%	/
7	-2%	1%	2%	3%
8	-2%	-7%	-5%	6%

2 records picked at random from the list so far:
entry	SMILES	Pol iota inh	G9a inh	POLB inh	Pol kappa inh
4	COc1ccccc1CNc1cc(-c2ccccc2)ccc1OC	11%	?	-26%	-22%
6	Fc1cccc(CN2CCc3nc(Nc4ccc5c(c4)OCCO5)ncc3C2)c1F	-6%	-1%[12.7 µM]	-19%	-8%[60.1 µM]

entry	BLM inh	Anesthetic bind	Pol eta inh	APE1 inh
4	-8%	40%[activator]	-5%	-6%
6	-9%	-3%	-14%	/

Next part:
entry	SMILES	Pol iota inh	G9a inh	POLB inh	Pol kappa inh
9	CCCCSc1nnc2c(n1)OC(c1ccc(Br)s1)Nc1ccccc1-2 (stereo unspecified)	-17%	7.1µM*	-2%	-39%
10	Cc1nc2ccc(NC(=O)N3CCSCC3)cc2s1	9%	1%[59 µM]	1%	-11%
11	NC(=O)c1ccc(NC(=O)CSc2nnc(-c3ccccn3)n2N)cc1	2%	25µM*	-11%	-19%
12	Cc1ccccc1NC1=C(C(=O)c2ccccc2)N(C)S(=O)(=O)c2ccccc21	?	28µM*	0%	0%
13	CCC1=NN(C(=O)c2ccc([N+](=O)[O-])cc2)C(O)(c2ccccc2)C1 (stereo unspecified)	28%	-12%[59 µM]	0%	0%
14	CCCCCCCCc1c(O)nc(-n2[nH]c(C)c(CCO)c2=O)[nH]c1=O	?	-39%	16%	5%
15	O=C(Oc1cccc2cccnc12)c1cccs1	-9%	?	35%	-9%
16	COc1cc(NC(=O)CN2CCN(Cc3ccc4c(c3)OCO4)CC2)cc(OC)c1	70%[activator]	2.8µM*	0%	-8%

entry	BLM inh	Anesthetic bind	Pol eta inh	APE1 inh
9	-6%	-20%	-10%	/
10	0%	-9%	12%	1%
11	-1%	0%	-23%	-4%
12	-7%	?	-13%	?
13	-6%	?	-5%	3%
14	-7%	-14%	-10%	19%
15	1%	-11%	-1%	10%
16	1%	-5%	-7%	-1%

The list continues:
entry	SMILES	Pol iota inh	G9a inh	POLB inh	Pol kappa inh
17	CC(NCc1ccc(S(N)(=O)=O)cc1)C(=O)N1c2ccccc2CC1C (stereo unspecified)	6%	-41%[12.7 µM]	-23%	-2%
18	O=C(NC(=S)N1CCN(C/C=C/c2ccccc2)CC1)c1ccc(F)cc1	-14%[58.9 µM]	/	-1%	-6%
19	Cn1nnnc1SCCCNCc1ccc(-c2cccc(Cl)c2)o1	-3%	-37%[59 µM]	17%	-10%
20	CC(Oc1ccccc1)C(=O)N/N=C/c1ccccn1 (stereo unspecified)	29%	-3%	2%	0%[60.1 µM]
21	C/C(=N\N(c1ccccc1)c1ccccc1)c1ccco1	-6%	35µM*	2%	-23%
22	Cc1ccc(NC(c2nnc(-c3ccccc3)o2)c2ccccc2F)c([N+](=O)[O-])c1 (stereo unspecified)	-11%	?	-26%	-16%
23	COc1ccc(-c2nn(-c3ccccc3)cc2/C=N/Nc2ccccn2)cc1OC	-4%	-20%[59 µM]	4%	1%
24	O=S(=O)(c1ccc2nc(N3CCN(c4ccc(F)cc4)CC3)ccc2c1)N1CCCCC1	?	2µM*	-23%	3%

entry	BLM inh	Anesthetic bind	Pol eta inh	APE1 inh
17	-1%	-12%	23%	2%
18	-6%	-5%	-15%	8%
19	-10%	65%[activator]	-21%	/
20	-3%	-5%	-5%	-5%
21	-7%	-23%	-15%	-4%
22	-7%	49%[activator]	-11%	/
23	-8%	149%[activator]	-21%	-5%
24	0%	-19%	-7%	20%

Some values from the list.
Under Pol eta inh, no. 21 has -15%
Under Pol eta inh, no. 23 has -21%

Following part.
entry	SMILES	Pol iota inh	G9a inh	POLB inh	Pol kappa inh
25	CCCn1c2ccccc2c2cnn(CC(=O)NCCCN3CCN(c4ccccc4)CC3)c(=O)c21	55%[activator]	-49%	25%	8%
26	COc1ccc(-n2c(=O)c3c4c(sc3n(CC(=O)Nc3cc(C)[nH]n3)c2=O)CCCC4)c(OC)c1	?	-42%	?	-6%
27	N#Cc1c(NC(=O)CN2CCCCC2)sc2c1CCC2	?	2%	?	-12%
28	CCOC(=O)c1c(C)c(/C=N/Nc2ccccc2)n(C)c1C	77%[activator]	?	-8%	-29%
29	CCCNCC1COc2ccccc2O1 (stereo unspecified)	-6%	?	?	-6%
30	O=C(CSc1nccn1-c1cccc(Cl)c1)Nc1cccc2ccccc12	-1%	11µM*	11%	-5%[60.1 µM]
31	O=S1(=O)CC/C(=N\Nc2ccc(F)cc2)c2ccsc21	13%	10µM*	10%	-9%
32	O=C(Nc1ccc(CCC(=O)N2CCCC2)cc1)c1ncn[nH]1	7%	0%[59 µM]	-3%	-15%

entry	BLM inh	Anesthetic bind	Pol eta inh	APE1 inh
25	3%	4%	-16%	-2%
26	-7%	-13%	1%	-2%
27	-14%	-7%	28µM*	2%
28	2%	-23%	-21%	-1%
29	-7%	-3%	1%	?
30	-6%	2%	-6%	/
31	-11%	-13%	-12%	-3%
32	-1%	-8%	-4%	-2%

The list goes on.
entry	SMILES	Pol iota inh	G9a inh	POLB inh	Pol kappa inh
33	Cc1ccc2nc(-c3ccccc3O)c(Nc3ccc4c(c3)OCCO4)n2c1	35%[activator]	?	89%	-8%
34	Cc1ccc(S(=O)(=O)N2CCOCC2)cc1NC(=O)CN1CCC(Cc2ccccc2)CC1	20%	7.9µM*	?	2%
35	CCOC(=O)C1CCN(CC(O)COCc2ccccc2)CC1 (stereo unspecified)	24%	-15%[0.501 µM]	-2%	6%
36	CCC(C)N=CC1=C(O)C(C(=O)OC)C(C)(C)CC1=O (stereo unspecified)	0%	?	4%	-8%
37	CCN(CC)C(=O)CSc1nnc(-c2cc3ccccc3cc2O)n1CC	-7%	/	2%	-13%
38	C[C@@H]1CC=C[C@H]2[C@H]1C(=O)N(Cc1ccccc1)[C@H]2c1cccc([N+](=O)[O-])c1	-15%	?	-2%	7%
39	CC(C)Nc1ncnc2c1cnn2-c1ccccc1	20%	11%[59 µM]	4%	-5%
40	COc1ccc(OC)c2c(C)c(C)[nH]c12	-16%	40µM*	28µM*	-10%

entry	BLM inh	Anesthetic bind	Pol eta inh	APE1 inh
33	-8%	-5%	-12%	-4%
34	-7%	50%[activator]	-13%	0%
35	-3%	-5%	-4%	-10%
36	-16%	1%	-19%	23%
37	4%	?	-3%	-6%
38	-13%	-22%	-15%	10%
39	2%	5%	-3%	2%
40	-6%	-17%	-17%	10%

Further records.
entry	SMILES	Pol iota inh	G9a inh	POLB inh	Pol kappa inh
41	COc1cc(OC)cc(C(=O)Nc2cc3c(cc2N2CCOCC2)n(C)c(=O)n3C)c1	9%	-14%[59 µM]	-2%	-9%
42	COc1cccc(C(=O)Nc2c(C(=O)N3CCN(c4ccc(F)cc4)CC3)oc3ccccc23)c1	8%	-47%[59 µM]	5%	-9%
43	CC1CCCCN1CC(=O)Nc1ccc2c(c1)OCO2 (stereo unspecified)	25%	-112%[12.7 µM]	/	1%
44	O=C(C1CCCN(Cc2ccccc2)C1)N1CCCCC1 (stereo unspecified)	-11%	13µM*	-2%	-5%
45	CC1(C)CC2CC(C)(CN2CC(O)COc2ccccc2)C1 (stereo unspecified)	97%[activator]	-10%	21%	-18%
46	NNC(=O)c1nc(-c2ccccc2)n2c1CCCCC2	48%[activator]	22%	5%	6%
47	O=[N+]([O-])CC(=Nc1ccc(F)cc1)N/N=C\c1oc(O)c2ccccc12	/	45µM*	4%	/
48	C=CCN(CC=C)CCOc1cccc(Oc2ccccc2)c1	-7%	14µM*	4%	-8%
49	C/C(N)=C(/C#N)C(=O)CSc1nn(-c2ccc(Cl)cc2)c(=S)s1	?	?	?	?

entry	BLM inh	Anesthetic bind	Pol eta inh	APE1 inh
41	0%	6%	-15%	/
42	-18%	-5%	-9%	/
43	/	/	-2%	23%
44	-8%	-15%	-1%	6%
45	-1%	-2%	3%	4%
46	-2%	-20%	2%	3%
47	-17%	-13%	/	-2%
48	0%	-1%	-14%	-1%
49	?	-20%	?	?

Structures listed so far with an aryl thioether with sulfur outside any ring, in the order listed:
entry	SMILES	Pol iota inh	G9a inh	POLB inh	Pol kappa inh
9	CCCCSc1nnc2c(n1)OC(c1ccc(Br)s1)Nc1ccccc1-2 (stereo unspecified)	-17%	7.1µM*	-2%	-39%
11	NC(=O)c1ccc(NC(=O)CSc2nnc(-c3ccccn3)n2N)cc1	2%	25µM*	-11%	-19%
19	Cn1nnnc1SCCCNCc1ccc(-c2cccc(Cl)c2)o1	-3%	-37%[59 µM]	17%	-10%
30	O=C(CSc1nccn1-c1cccc(Cl)c1)Nc1cccc2ccccc12	-1%	11µM*	11%	-5%[60.1 µM]
37	CCN(CC)C(=O)CSc1nnc(-c2cc3ccccc3cc2O)n1CC	-7%	/	2%	-13%
49	C/C(N)=C(/C#N)C(=O)CSc1nn(-c2ccc(Cl)cc2)c(=S)s1	?	?	?	?

entry	BLM inh	Anesthetic bind	Pol eta inh	APE1 inh
9	-6%	-20%	-10%	/
11	-1%	0%	-23%	-4%
19	-10%	65%[activator]	-21%	/
30	-6%	2%	-6%	/
37	4%	?	-3%	-6%
49	?	-20%	?	?

High-throughput results as filed in PubChem.

These rows are one share of the data, so the mix of outcomes need not match the whole.
